WNV NS2B-NS3 inh – inhibitors of WNV NS2B-NS3 protease, primary screen, biochemical, fluorogenic substrate; fluorogenic substrate Ex360/Em465; active compounds read low; 0.18% of 65,000 active; z-score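 (tested at a level between 10 and 100 µM)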;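 active = z-score at -3 or under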;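 note: score is relative to mean and spread of the compound wells of a plate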
Target sequence (P06935 1371-1501 limits assumed): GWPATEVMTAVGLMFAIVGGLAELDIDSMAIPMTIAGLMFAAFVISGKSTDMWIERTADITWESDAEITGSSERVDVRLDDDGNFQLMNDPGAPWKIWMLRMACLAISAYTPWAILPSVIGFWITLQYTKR
Target sequence (P06935 1502-1679 limits assumed): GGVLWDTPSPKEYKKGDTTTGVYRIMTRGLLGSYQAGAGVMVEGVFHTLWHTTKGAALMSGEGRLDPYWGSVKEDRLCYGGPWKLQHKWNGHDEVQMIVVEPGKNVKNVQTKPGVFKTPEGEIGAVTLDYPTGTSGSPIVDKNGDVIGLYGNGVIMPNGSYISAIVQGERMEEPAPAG
MT1-MMP reporter – inhibitors of MT1-MMP promoter transcription, cell-based, luciferase reporter, luminescence (AID 618); MT1-MMP promoter luciferase reporter cells, luminescence; calls from a first round at 10 µM; hits with a dose series show EC50 in µM; 0.62% of 87,000 active;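 active = over half of the reporter light lost at 10 µM or EC50 under 50 µM; inactive = the rest and hits that failed the dose series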;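 note: actives suppress MT1-MMP promoter-driven transcription so potencies describe inhibitors; HT1080 fibrosarcoma cells; overnight exposure; toxic or luciferase-blocking compounds were not removed from the actives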
Hsc70 – Hsc70 inhibitors, probe displacement, primary screen, biochemical, fluorescence polarization (AID 568) | Hsc70 fluorescence polarization, probe displacement; higher % means a stronger effect; strong numbers were not always called active | Heat shock cognate 71 kDa protein (Homo sapiens) | 83,000 tested, under 10 active | displacement, % at 20 µM; hits with a dose series show IC50 in µM;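 active = displacement above 50% without optical interference and an IC50 on retest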;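 note: ATPase domain with a fluorescein-tagged ATP probe; 0% = vehicle and 100% = excess ADP; read after one hour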
Numbers without * were called inactive; i = inactive; x = not tested or not shown.

SMILES	WNV NS2B-NS3 inh	MT1-MMP reporter	Hsc70
COc1ccc2nc(NC3=NCN(CC4CCCO4)CN3)nc(C)c2c1 (centres undefined)	-1.32	i	5.0%
COC(=O)C1=C(C)n2cnnc2NC1c1ccc(Cl)cc1 (centres undefined)	-0.73	i	-1.9%
O=CN1CCC(=O)N(Cc2ccccc2)c2ccccc21	0.23	i	-3.2%
CCc1nc2c(C#N)c(-c3ccc(Cl)cc3)ccn2n1	x	i	-3.4%
CCCC(C)(C)NC(=O)CCCCC(=O)NC(C)(C)CCC	-0.45	i	2.5%
Cc1cccc(NC(=O)CCN2CCN(C/C=C/c3ccccc3)CC2)c1	-0.33	i	0.6%
CCOC(=O)CSc1nnc(-c2ccc(Cl)cc2Cl)o1	-0.22	i	-0.6%
COc1ccc(C(=O)NC(C)c2nnc(SCC(=O)Nc3nc4ccccc4s3)n2C)cc1 (centres undefined)	0.73	i	2.2%
CCOC(=O)CNC(=O)CSc1nnc(Cn2cnc3ccccc32)n1C	-0.29	i	-1.1%
CC(C)C(c1nnnn1Cc1ccc(F)cc1)N1CCSCC1 (centres undefined)	-1.36	i	-2.2%
O=C(c1ccc2c(=O)n(CC3CCCO3)c(=S)[nH]c2c1)N1CCN(c2ccccc2)CC1 (centres undefined)	-1.01	i	-5.0%
COc1cc(OC)c(C(=O)Nc2ncn[nH]2)cc1OC	-0.9	i	3.5%
COc1cccc(-n2nnc3c(=O)n(CC(=O)N4CCCCC4)cnc32)c1	0.98	i	-2.7%
COc1ccc(N2CC(C(=O)Nc3ccc(N4CCOCC4)cc3)CC2=O)cc1 (centres undefined)	-0.05	i	0.1%
CCC(=O)Nc1nc(C)nc(C)c1C(C)=O	0.55	i	-3.3%
Cc1ccccc1C(=O)N/C(=C/c1ccc(-c2cccnc2Cl)o1)C(=O)NCCCN1CCN(C)CC1	x	i	-0.8%
CCN1CCCC(NC(=O)c2scc3c2CCCC3)C1 (centres undefined)	-0.61	i	6.9%
Cc1cc2n(n1)C(c1sccc1C)Nc1c(C)cccc1-2 (centres undefined)	0.78	i	-3.3%
O=C(C1CCCO1)N1CCC(c2nc3ccccc3[nH]2)CC1 (centres undefined)	-0.86	i	-1.8%
CC(C)NC(=O)c1ccc(C2SCC(=O)N2Cc2ccccc2)cc1 (centres undefined)	x	i	-6.5%
CCN(CC)CC(=O)NC12CC3CC(CC(C3)C1)C2	x	i	-3.1%
O=C(Cn1nnc2ccccc2c1=O)Nc1ccc2c(c1)CCC2	-0.39	i	-3.1%
O=C1CC(c2ccco2)CC(O)=C1C=NCC1NCCc2ccccc21 (centres undefined)	0.13	i	-3.9%
C=CCNc1ncnc2c1cnn2-c1cccc(C)c1	-1.92	i	5.0%
CCOC(=O)CNC(=O)CSc1nnc(SCC(=O)NCC(=O)OCC)s1	-0.2	i	-3.3%
COCCCNC(=O)c1cc2c(-c3ccc(Cl)cc3)nn(C)c2s1	-0.89	i	0.9%
CCOC(=O)C1CCCN(Cc2cc(Br)c(OC)cc2OC)C1 (centres undefined)	0.75	i	2.0%
COc1ccc(-c2[nH]nc(-c3ccccc3)c2-c2nc3ccccc3[nH]2)cc1	x	i	-0.2%
COc1ccc([C@H]2[C@H](C(=O)C(C)(C)C)N3N=Cc4ccccc4C3[C@]23N=C(c2ccccc2)OC3=O)cc1 (some centres undefined)	x	i	1.3%
CCN(CC)CCCNC(=O)c1cc(-c2ccc(O)cc2)on1	1.55	i	8.2%
CC(C)NC(=O)CCCc1ccccc1	-0.27	i	-3.7%
CC(C)(C)c1nc2ccccc2c2nnc(SCC(=O)NCc3ccco3)n12	-0.99	i	0.1%
Cc1cccc(N2CC(O)=C(c3nc4ccccc4n3C)C2=N)c1	x	i	-0.3%
CCNC(=O)c1c(O)c2cccc3c2n(c1=O)CC3	0.21	i	-1.3%
Cc1cc(C)n(-c2cc(N3CCOCC3)nc(-c3ccccc3)n2)n1	-0.11	i	-1.9%
O=C1c2ccccc2C(=O)N1CC1=CCS(=O)(=O)C1	-1.32	i	3.8%
CC(C)OC(=O)CCC(=O)Nc1nc2ccccc2s1	-0.55	i	7.3%
O=C(Cc1ccccc1)NC(NNc1ccccc1)(C(F)(F)F)C(F)(F)F	x	i	2.0%
CC(=O)Nc1cccc(C(=O)N2CCN(Cc3ccccc3)CC2)c1	0.54	i	0.0%
CCCCc1cc(O)c(CCCC)c(O)c1	-0.75	i	1.4%
O=C(NCc1ccco1)c1c(O)c2cccc3c2n(c1=O)CCC3	-0.19	i	-2.2%
COc1ccccc1NC(=O)c1nnn(CC(=O)Nc2ccccc2)c1N	-0.69	i	3.7%
O=C(Nc1ccc2c(c1)OCO2)N1CCN(c2ncccn2)CC1	-0.86	i	4.1%
CCOc1ccc(C(C(=O)NC2CCCCC2)N(C(=O)c2ccco2)c2ccc(-n3cnnn3)c(C)c2)cc1 (centres undefined)	x	i	7.2%
C#CCOC(=O)CCCC(=O)Nc1ccccc1OC	0.86	i	0.3%
OCc1nnc2c3ccccc3c(-c3ccccc3)nn12	x	i	5.5%
COc1ccc(CN2CCCCC2C(=O)Nc2ccc(OC)c(OC)c2)cc1OC (centres undefined)	-0.29	i	-2.8%
COc1ccc(-c2noc(C3CCCN(C(=O)c4cccs4)C3)n2)cc1 (centres undefined)	-0.87	i	1.2%

Five of the compounds above, in markdown:
| mol | WNV NS2B-NS3 inh | MT1-MMP reporter | Hsc70 |
| --- | --- | --- | --- |
| COc1ccc(CN2CCCCC2C(=O)Nc2ccc(OC)c(OC)c2)cc1OC (centres undefined) | -0.29 | i | -2.8% |
| O=C(Nc1ccc2c(c1)OCO2)N1CCN(c2ncccn2)CC1 | -0.86 | i | 4.1% |
| O=C(NCc1ccco1)c1c(O)c2cccc3c2n(c1=O)CCC3 | -0.19 | i | -2.2% |
| COc1ccc(-c2noc(C3CCCN(C(=O)c4cccs4)C3)n2)cc1 (centres undefined) | -0.87 | i | 1.2% |
| C#CCOC(=O)CCCC(=O)Nc1ccccc1OC | 0.86 | i | 0.3% |

Further structures follow.
SMILES	WNV NS2B-NS3 inh	MT1-MMP reporter	Hsc70
COc1ccc(C(=O)NCCC2=CCCCC2)cc1OC	x	i	4.1%
CCOC(=O)CSc1nc2c(c(=O)[nH]c(=O)n2C)n1CCCc1ccccc1	0.21	i	-0.2%
N=C1C(c2nc3ccccc3s2)=C(O)CN1Cc1ccccc1	x	i	14.1%
COc1cc(C(=O)OC(C)CN2CCCC2)cc(OC)c1OC (centres undefined)	0.26	i	-1.1%
Cc1ccc2ccccc2c1Cn1c(-n2ccnc2)nc2c1c(=O)n(C)c(=O)n2C	x	i	1.6%
CC(NS(=O)(=O)c1ccc(OCC(=O)N2CCOCC2)cc1)c1ccccc1 (centres undefined)	-1.78	i	6.5%
Cc1cc(C)n2nc(C(=O)Nc3ccccc3N3CCOCC3)nc2n1	0.17	i	7.6%
Cc1c(O)c(CN2CCCC2)cc2c3c(c(=O)oc12)CCC3	11.7	i	0.5%
CCC(=O)N1Cc2ccccc2-c2ccccc2C1=O	0.39	i	5.6%
CC(=O)Nc1cccc(OCC(=O)NS(=O)(=O)c2ccc(C)cc2)c1	-2.36	i	1.8%
CCC(C(=O)NC(C)CCc1ccccc1)n1nc(C)n2c(cc3occc32)c1=O (centres undefined)	-0.29	i	-9.1%
Cc1csc(N(C)C(=O)CSc2nnc(COc3cccc4ccccc34)o2)n1	-0.14	i	-2.5%
Cc1cc(C)n(-c2nnc(C)n2/N=C/c2ccccc2OCc2ccccc2Cl)n1	-0.72	i	-0.1%
O=C(OCC(=O)N1CCN(C(=O)c2ccco2)CC1)c1ccccc1OCc1ccccc1	0.44	i	-0.1%
C=CCSc1nc2c(c(=N)n1CC=C)C1CCCC1S2 (centres undefined)	-0.00692	i	4.6%
COC(=O)[C@H](CCSC)NC(=O)Nc1ccc(OC)c(Cl)c1	0.73	i	-2.0%
Cc1cc(NC(=O)CCC(=O)N(c2cccnc2)C(C(=O)NC2CCCC2)c2ccccc2F)no1 (centres undefined)	-0.61	i	-6.1%
Cn1c(=O)c2c(nc(NC3CCCCC3)n2Cc2ccccc2)n(C)c1=O	-1	i	3.5%
CCOCCCn1c(=N)c(C(=O)Nc2cc(C)on2)cc2c(=O)n3ccccc3nc21	0.12	i	6.0%
CCOC(=O)COc1c(OC)cc(Cl)cc1C1NC(=O)NC(C)=C1C(C)=O (centres undefined)	-0.36	i	4.2%
CCC(c1nnnn1CCC(C)C)N1CCC(C(N)=O)CC1 (centres undefined)	0.38	i	-6.3%
CCCc1cc(NCCCCO)n2c(nc3ccccc32)c1C#N	3.33	i	-8.1%
COc1cc2nc(CC(C)C)n(NC(=O)c3ccccc3)c(=O)c2cc1OC	0.41	i	-1.7%
COc1cccc(C(c2sc3nc(C)nn3c2O)N2CCN(C(=O)c3ccco3)CC2)c1 (centres undefined)	0.41	i	-0.5%
O=C1CC(C2CCCO2)C(=O)N1Cc1ccccc1 (centres undefined)	0.44	i	0.5%
Cc1ccc(-c2nn(C)c(=O)c3ccccc23)cc1CO	-0.12	i	-0.1%
Cn1c(=O)[nH]c(=O)c2c1nc(NCCCO)n2Cc1ccc(F)cc1	-0.42	i	-4.8%
CCn1c(SCC(=O)Nc2nc3c(s2)CCCC3)nnc1-c1ccccc1	-0.63	i	-9.0%
Cc1ccc2nnc(Cl)n2n1	0.5	i	-7.3%
CCOC(=O)c1ccc(NC(=O)COc2ccc(S(=O)(=O)NC(C)C)cc2)cc1	0.1	i	-7.2%
CSc1cccc(NS(=O)(=O)c2ccccc2)c1	-0.8	i	1.4%
Cc1cccc(OCC(=O)N(Cc2cccs2)C2CCS(=O)(=O)C2)c1C (centres undefined)	-0.56	i	2.7%
O=C(COc1ccc(S(=O)(=O)N2CCCCC2)cc1)NCc1cccnc1	x	i	0.7%
CCC1CCCCN1C(=O)CSc1nc2c([nH]c3ccccc32)c(=O)n1C (centres undefined)	x	i	3.7%
O=C(Cn1cccc1C(=O)c1ccccc1)NCCN1CCOCC1	0.36	i	2.9%
COC(=O)C1=C(O)/C(=C\c2ccc(O)c(OC)c2)N=C1C	x	i	-20.6%

Overlap with the part before: 3 compounds, followed by the next part.
SMILES	WNV NS2B-NS3 inh	MT1-MMP reporter	Hsc70
CCC1CCCCN1C(=O)CSc1nc2c([nH]c3ccccc32)c(=O)n1C (centres undefined)	x	i	3.7%
O=C(Cn1cccc1C(=O)c1ccccc1)NCCN1CCOCC1	0.36	i	2.9%
COC(=O)C1=C(O)/C(=C\c2ccc(O)c(OC)c2)N=C1C	x	i	-20.6%
CC(=O)c1c(C)nc2ccccc2c1N	2.43	i	2.7%
O=C(CCCN1C(=O)c2ccccc2C1=O)N1CCc2ccccc2C1	x	i	-3.0%
O=C(CCc1nc(-c2ccccc2F)no1)NC1CCCCCC1	-0.08	i	-11.0%
CCCCN1C(=O)c2ccc(C(=O)Nc3c(N)n(CCCC)c(=O)n(C)c3=O)cc2C1=O	-1.26	i	2.3%
N#CC1C(C#N)N2CCCN2C1c1ccc(Cl)cc1 (centres undefined)	x	i	5.1%
CCCn1c(SCc2cc(=O)oc3ccc4ccccc4c23)n[nH]c1=O	1.91	i	0.7%
Cn1c(=O)cc(OCC(=O)N2CCN(c3cccc(C(F)(F)F)c3)CC2)c2ccccc21	-0.4	i	-2.7%
CCOC(=O)C1=C(C)NC(C)=C(C(=O)OCC)C1C(=O)OCC(=O)c1ccc2c(c1)OCCO2	-0.02	i	-7.0%
O=C(NCCn1ccc2ccccc21)c1ccc2c(c1)OCO2	-1.38	i	2.6%
COc1cc(OC)cc(C(=O)OCn2nnc3ccccc3c2=O)c1	-0.38	i	-5.1%
COc1ccc2c(c1)c1ncn(CCCN3CCOCC3)c(=O)c1n2C	x	i	3.1%
CC(=O)c1ccc(-n2nncc2C)cc1	-1	i	5.6%

Structures listed so far that contain a CF3 group (2):
SMILES	WNV NS2B-NS3 inh	MT1-MMP reporter	Hsc70
O=C(Cc1ccccc1)NC(NNc1ccccc1)(C(F)(F)F)C(F)(F)F	x	i	2.0%
Cn1c(=O)cc(OCC(=O)N2CCN(c3cccc(C(F)(F)F)c3)CC2)c2ccccc21	-0.4	i	-2.7%

Following part:
SMILES	WNV NS2B-NS3 inh	MT1-MMP reporter	Hsc70
O=C(CCCn1c(SCC(=O)c2ccc(O)c(O)c2)nc2ccccc2c1=O)NCC1CCCO1 (centres undefined)	-1.22	i	-7.1%
Cc1nc(NC(=O)c2cccnc2)ccc1Br	-0.32	i	5.0%
CCS(=O)(=O)NCCc1cc2c(OC)ccc(OC)c2[nH]c1=O	0.15	i	4.8%
Nc1nc(SCC(=O)OCc2ccccc2)[nH]c(=O)c1NC(=O)c1ccco1	0.79	i	-1.3%
N#Cc1nc(-c2ccco2)oc1N1CCc2ccccc2C1	-0.02	i	-11.8%
CN(C)c1ccc(/C=N/N2C(=S)SC(C)(C)C2N(O)C(=O)Nc2ccc([N+](=O)[O-])cc2)cc1 (centres undefined)	x	i	6.0%
Nc1nnc(SCC(=O)Nc2cc(C(F)(F)F)ccc2N2CCOCC2)s1	x	i	-0.7%
CCOc1cc(C2C(C(=O)c3ccccc3)=C(C(=O)OC)Nc3nnnn32)ccc1O (centres undefined)	0.07	i	2.5%
CNS(=O)(=O)c1cccc(C(=O)OCC(=O)C23CC4CC(CC(C4)C2)C3)c1	x	i	-5.2%
Cc1ccc(-n2c(N)c(C(=O)N3CCOCC3)sc2=S)cc1	-1.76	i	5.1%

Source: PubChem
